Assay outcomes: PubChem BioAssay, Broad Institute
DUX4 inh: inhibitors of DUX4-driven ZSCAN4 reporter expression, primary screen, 293T cells, Gaussia and Italica luciferase; 293T-iDUX4 ZSCAN4-Gaussia luciferase reporter, 24 h; active compounds read low; activity change, negative = inhibition, % (no concentration beside the values); 37,000 tested, 0.8% active; AID 1224904, 2016;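 active = -10% or lower and over 25 points stronger than a control reporter; inconclusive = -10% or lower with a smaller gap; inactive = above -10%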;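 note: 0% = median of neutral control wells and -100% = median of positive control wells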
DUX4 inh difference: second read-out of DUX4 inh, no call of its own (marks repeat the call); Gaussia minus Italica difference, %; measured here: selective DUX4 reporter inhibition;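 worked out from the two reporters; negative = selective loss of the DUX4 reporter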
DUX4 inh control: further read-out of DUX4 inh, marked with its call; activity change, negative = inhibition, %; measured here: Italica tet-on control reporter;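 0 = neutral control and -100 = positive control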
* = called active by the depositor.

For Cc1noc(C)c1NC(=O)N(C)C[C@@H]1Oc2ccc(NC(=O)CCCN(C)C)cc2C(=O)N([C@@H](C)CO)C[C@H]1C the results were DUX4 inh -1.0, DUX4 inh difference -2.0 and DUX4 inh control 1.0.
`CCCC#Cc1ccc2c(c1)[C@@H]1[C@@H](CCN1C(=O)C1CCCCC1)[C@@H](CO)N2` gave DUX4 inh 9.4, DUX4 inh difference 0.7 and DUX4 inh control 8.7.
For O=C(O)[C@@H]1[C@@H](CO)[C@@H]2Cn3c(ccc(-c4cccc(F)c4)c3=O)[C@@H]2N1C(=O)c1ccccn1 the results were DUX4 inh 5.6, DUX4 inh difference -4.1 and DUX4 inh control 9.7.
CCC(=O)N[C@H]1C=C[C@@H](CC(=O)NCc2cc(F)cc(F)c2)O[C@H]1CO was read as DUX4 inh 4.4, DUX4 inh difference 7.7 and DUX4 inh control -3.3.
`CN1CCN(C(=O)C[C@@H]2C[C@H]3c4cc(NS(C)(=O)=O)ccc4O[C@H]3[C@H](CO)O2)CC1` gave DUX4 inh 7.3, DUX4 inh difference 2.3 and DUX4 inh control 5.0.
COc1cccc(CNC(=O)C[C@H]2CC[C@@H]3[C@H](COc4ccc(NS(=O)(=O)c5ccccc5F)cc4C(=O)N3C)O2)c1 was read as DUX4 inh 0.0, DUX4 inh difference -4.1 and DUX4 inh control 4.2.
For Cc1ccc(S(=O)(=O)Nc2ccc3c(c2)C(=O)N([C@H](C)CO)C[C@@H](C)[C@@H](CN(C)C(=O)NC2CCCCC2)OCCCC[C@@H](C)O3)cc1 the results were DUX4 inh 5.0, DUX4 inh difference -2.4 and DUX4 inh control 7.4.
`COc1ccccc1NC(=O)N[C@H]1CC[C@@H](CC(=O)N[C@H](C)c2ccccc2)O[C@H]1CO` gave DUX4 inh 4.1, DUX4 inh difference 1.0 and DUX4 inh control 3.1.
Screening CC(=O)N1[C@@H]2c3ccc(-c4ccccc4)c(=O)n3C[C@H]1[C@H](CO)[C@H]2C(=O)N1CCN(C)CC1 returned DUX4 inh 5.8, DUX4 inh difference 4.0 and DUX4 inh control 1.9.
`COCCNC(=O)C[C@@H]1C[C@H]2c3cc(NC(=O)c4cccnc4)ccc3O[C@H]2[C@H](CO)O1` gave DUX4 inh 5.5, DUX4 inh difference 3.9 and DUX4 inh control 1.6.
For CCCNC(=O)N1CC2(CN(S(=O)(=O)CC)C2)c2c(n(C)c3cc(OC)ccc23)[C@H]1CO the results were DUX4 inh 12.8, DUX4 inh difference 15.3 and DUX4 inh control -2.5.
`CC=Cc1ccc2n(c1=O)C[C@@H]1[C@@H](CO)[C@H](C(=O)N3CCC(Cc4ccccc4)CC3)N(CCC)[C@H]21` (mixture of isomers) gave DUX4 inh inconclusive.
For C[C@@H]1CCn2cc(nn2)COC[C@H](Cc2ccccc2)NC1=O the results were DUX4 inh -3.5, DUX4 inh difference -0.8 and DUX4 inh control -2.7.
`N#C[C@H]1[C@@H](c2ccc(C3=CCCCC3)cc2)[C@@H](CO)N1S(=O)(=O)c1ccccc1` gave DUX4 inh 0.9, DUX4 inh difference -1.8 and DUX4 inh control 2.7.
CN(C)C(=O)[C@H]1[C@H](CO)[C@H]2Cn3c(ccc(C4=CCCC4)c3=O)[C@@H]1N2C was read as DUX4 inh 9.4, DUX4 inh difference 8.2 and DUX4 inh control 1.2.
Screening CN1CCCCN2[C@H](CO)[C@H](c3ccc(C#Cc4ccccc4F)cc3)[C@@H]2C1 returned DUX4 inh 6.2, DUX4 inh difference 13.8 and DUX4 inh control -7.6.
CO[C@H]1CN(C)C(=O)c2cc(NC(=O)Cc3ccccc3)ccc2OC[C@@H](C)N(C)C[C@@H]1C was read as DUX4 inh 6.9, DUX4 inh difference 2.0 and DUX4 inh control 4.9.
`O=C(C[C@H]1CC[C@@H]2[C@H](COC[C@@H](O)CN2C(=O)Nc2ccccc2)O1)NCCCN1CCOCC1` gave DUX4 inh 13.5, DUX4 inh difference 4.0 and DUX4 inh control 9.5.
Screening C[C@H]1CN([C@@H](C)CO)C(=O)Cc2cc(NC(=O)Nc3cccc4ccccc34)ccc2O[C@H]1CN(C)Cc1ccc(C(=O)O)cc1 returned DUX4 inh -4.5, DUX4 inh difference 2.9 and DUX4 inh control -7.4.
CO[C@@H]1CN(C)C(=O)c2ccc(NC(=O)C3CC3)cc2OC[C@H](C)N(C(=O)c2cccnc2)C[C@H]1C was read as DUX4 inh 3.0, DUX4 inh difference -0.1 and DUX4 inh control 3.0.
CNC[C@H]1OCCCC[C@@H](C)Oc2ccc(NC(=O)Cc3ccccc3)cc2C(=O)N([C@H](C)CO)C[C@@H]1C was read as DUX4 inh 1.2, DUX4 inh difference -0.3 and DUX4 inh control 1.5.
C/C=C/c1cccc(-c2nc(C(=O)N(C)C)cc3c2[C@@H](CCO)N([S@](=O)C(C)(C)C)C3)c1 was read as DUX4 inh 0.1, DUX4 inh difference -0.8 and DUX4 inh control 1.0.
CNC(=O)C[C@@H]1CC[C@@H]2[C@H](COC[C@@H](O)CN2Cc2ccncc2)O1 was read as DUX4 inh 5.7, DUX4 inh difference 0.6 and DUX4 inh control 5.1.
CCCNC(=O)N1C[C@@H]2[C@H](c3ccccc31)[C@@H](CO)N2C(=O)Nc1ccccc1 was read as DUX4 inh 5.7, DUX4 inh difference 9.2 and DUX4 inh control -3.5.
COc1cccc(CN2[C@H](CO)[C@H](c3ccccc3)C23CN(C(=O)C2CCOCC2)C3)c1 was read as DUX4 inh 18.3, DUX4 inh difference 10.6 and DUX4 inh control 7.7.
CO[C@H]1CN(C)C(=O)c2cc(NS(=O)(=O)CC(F)(F)F)ccc2OC[C@H](C)N(Cc2ccccn2)C[C@@H]1C was read as DUX4 inh -2.7, DUX4 inh difference -6.7 and DUX4 inh control 3.9.
`C[C@@H]1CN([C@@H](C)CO)C(=O)c2cccc(N(C)C)c2O[C@@H]1CN(C)C(=O)Nc1ccc(F)cc1` gave DUX4 inh -0.3, DUX4 inh difference 1.7 and DUX4 inh control -1.9.
Screening CN(C)C(=O)c1cccc(-c2ccccc2[C@H]2[C@@H](C#N)N(C(=O)C3CCCCC3)[C@@H]2CO)c1 returned DUX4 inh 10.8, DUX4 inh difference 9.6 and DUX4 inh control 1.2.
Screening CCS(=O)(=O)N1CCC2(CC1)CN(C(=O)CN1CCOCC1)[C@H](CO)c1c2c2ccc(OC)cc2n1C returned DUX4 inh 16.1, DUX4 inh difference 12.4 and DUX4 inh control 3.7.
`CCCNC(=O)N1C[C@@H](C)[C@H](OC)CN(C)C(=O)c2cc(NS(=O)(=O)CC(F)(F)F)ccc2OC[C@@H]1C` gave DUX4 inh -5.1, DUX4 inh difference -4.4 and DUX4 inh control -0.7.

Looked up one by one from above:
`COc1ccccc1NC(=O)N[C@H]1CC[C@@H](CC(=O)N[C@H](C)c2ccccc2)O[C@H]1CO` gave DUX4 inh 4.1, DUX4 inh difference 1.0 and DUX4 inh control 3.1.
C/C=C/c1cccc(-c2nc(C(=O)N(C)C)cc3c2[C@@H](CCO)N([S@](=O)C(C)(C)C)C3)c1 was read as DUX4 inh 0.1, DUX4 inh difference -0.8 and DUX4 inh control 1.0.
CO[C@@H]1CN(C)C(=O)c2ccc(NC(=O)C3CC3)cc2OC[C@H](C)N(C(=O)c2cccnc2)C[C@H]1C was read as DUX4 inh 3.0, DUX4 inh difference -0.1 and DUX4 inh control 3.0.
`N#C[C@H]1[C@@H](c2ccc(C3=CCCCC3)cc2)[C@@H](CO)N1S(=O)(=O)c1ccccc1` gave DUX4 inh 0.9, DUX4 inh difference -1.8 and DUX4 inh control 2.7.

Going on with the list:
CN1c2ccc(-c3ccccc3)cc2[C@@H]2[C@@H](CCN2C(=O)CN2CCOCC2)[C@H]1CO was read as DUX4 inh 10.5, DUX4 inh difference -6.3 and DUX4 inh control 16.8.
`C[C@H](CO)N1C[C@H](C)[C@@H](CN(C)Cc2ccc(C(=O)Nc3ccccc3N)cc2)Oc2ccc(NC(=O)C3CCCCC3)cc2CC1=O` gave DUX4 inh 1.1, DUX4 inh difference 2.5 and DUX4 inh control -1.4.
O=C(c1ccccc1)N1CC(=O)N2[C@@H](CO)[C@H](c3ccc(C#CC4CC4)cc3)[C@@H]2C1 was read as DUX4 inh 2.8, DUX4 inh difference 1.5 and DUX4 inh control 1.4.
CCS(=O)(=O)N1CC(=O)N2[C@H](CO)[C@@H](c3ccc(-c4ccc(C)cc4)cc3)[C@@H]2C1 was read as DUX4 inh 5.3, DUX4 inh difference 7.3 and DUX4 inh control -2.0.
`O=C(NCCc1ccccc1)[C@@H]1[C@@H](CO)[C@@H]2Cn3c(cccc3=O)[C@@H]2N1Cc1cccnc1` gave DUX4 inh 2.1, DUX4 inh difference -4.5 and DUX4 inh control 6.6.
`Cc1cccc(-c2ccc([C@@H]3[C@@H](CO)N4CCCCN(C(=O)c5ccncc5)C[C@@H]34)cc2)c1` gave DUX4 inh 22.9, DUX4 inh difference 25.1 and DUX4 inh control -2.2.
`Cc1ccccc1S(=O)(=O)N1CCCCN2[C@H](C1)[C@H](c1ccc(-c3cccnc3)cc1)[C@@H]2CO` gave DUX4 inh inconclusive.
COc1ccc2c3c(n(C)c2c1)[C@@H](CO)N(C(=O)CN1CCOCC1)CC31CCN(C(C)=O)CC1 was read as DUX4 inh 21.7, DUX4 inh difference 22.1 and DUX4 inh control -0.4.
Cc1ccc(-c2cnc3c(c2)C(=O)N([C@H](C)CO)C[C@@H](C)[C@@H](CN(C)Cc2ccccc2C(=O)O)O3)cc1 was read as DUX4 inh -2.7, DUX4 inh difference 1.7 and DUX4 inh control -4.4.
For O=C(c1cccc(F)c1)N1CC(=O)N2[C@H](C1)[C@@H](c1ccc(-c3ccccc3F)cc1)[C@@H]2CO the results were DUX4 inh -10.0, DUX4 inh difference 3.2 and DUX4 inh control -13.2.
Screening CO[C@H](CN(C)Cc1ccc2c(c1)OCO2)[C@H](C)CN(C(=O)c1ccccc1)[C@H](C)CO returned DUX4 inh -1.7, DUX4 inh difference 0.6 and DUX4 inh control -2.3.
For C[C@@H]1CN([C@H](C)CO)C(=O)c2cccc(NC(=O)Nc3ccc(C(F)(F)F)cc3)c2O[C@H]1CN(C)Cc1ccc2c(c1)OCO2 the results were DUX4 inh -3.0, DUX4 inh difference -3.1 and DUX4 inh control 0.1.
For CCCNC(=O)C[C@H]1C[C@@H]2c3cc(NC(=O)COC)ccc3O[C@@H]2[C@@H](CO)O1 the results were DUX4 inh 3.4, DUX4 inh difference -1.4 and DUX4 inh control 4.8.
`O=C(c1ccncc1)N1CCCCN2[C@H](CO)[C@@H](c3ccc(-c4ccccc4)cc3)[C@H]2C1` gave DUX4 inh 24.2, DUX4 inh difference 21.8 and DUX4 inh control 2.4.
Screening COc1cccc(C(=O)N2C[C@H]3[C@@H](c4ccccc42)[C@@H](CO)N3Cc2cccnc2)c1 returned DUX4 inh 3.9, DUX4 inh difference 4.5 and DUX4 inh control -0.6.
Screening C[C@H](NC(=O)C[C@H]1C=C[C@H](NS(=O)(=O)c2cccc(F)c2)[C@H](CO)O1)c1ccccc1 returned DUX4 inh 1.0, DUX4 inh difference 1.1 and DUX4 inh control 0.0.
`CCCNC(=O)[C@H]1[C@H](CO)[C@H]2Cn3c(ccc(-c4cccc(F)c4)c3=O)[C@@H]1N2C(C)=O` gave DUX4 inh 4.6, DUX4 inh difference -2.0 and DUX4 inh control 6.5.
N#Cc1ccc(-c2ccc3c(c2)[C@@H]2[C@@H](CCN2C(=O)c2ccc(F)cc2)[C@@H](CO)N3)cc1 was read as DUX4 inh 0.2, DUX4 inh difference -6.7 and DUX4 inh control 7.0.
CCCNC(=O)N1CC2(C1)[C@H](c1ccccc1)[C@H](CO)N2C(=O)c1cccnc1 was read as DUX4 inh inconclusive.
CC=Cc1ccc2n(c1=O)C[C@@H]1[C@@H](CO)[C@H](C(=O)N[C@H](C)c3ccccc3)[C@H]2N1Cc1cncnc1 (mixture of isomers) was read as DUX4 inh -4.0, DUX4 inh difference 2.9 and DUX4 inh control -6.8.
C[C@@H]1CN([C@H](C)CO)C(=O)c2ccccc2-c2ccccc2CO[C@@H]1CN(C)Cc1ccc(F)cc1 was read as DUX4 inh inconclusive.
Screening N#C[C@H]1N[C@H](CO)[C@@H]1c1ccc(C#CC2CCCC2)cc1 returned DUX4 inh -3.6, DUX4 inh difference -0.6 and DUX4 inh control -3.0.
Screening CC(C)CC#Cc1ccc([C@@H]2[C@@H](CO)N3C(=O)CN(S(=O)(=O)c4cccc(F)c4)C[C@@H]23)cc1 returned DUX4 inh inconclusive.
C[C@@H](NC(=O)C[C@@H]1C=C[C@@H](NC(=O)CN2CCOCC2)[C@@H](CO)O1)c1ccccc1 was read as DUX4 inh -1.9, DUX4 inh difference -1.4 and DUX4 inh control -0.4.
`O=C(Nc1ccc(F)cc1)N1C[C@@H]2N[C@H](C1)C2c1ccc(/C=C/c2ccccc2)cc1` (stereo partly specified) gave DUX4 inh inconclusive.

Three structures already listed, sorted by SMILES length, rising:
`CCCC#Cc1ccc2c(c1)[C@@H]1[C@@H](CCN1C(=O)C1CCCCC1)[C@@H](CO)N2` gave DUX4 inh 9.4, DUX4 inh difference 0.7 and DUX4 inh control 8.7.
`O=C(C[C@H]1CC[C@@H]2[C@H](COC[C@@H](O)CN2C(=O)Nc2ccccc2)O1)NCCCN1CCOCC1` gave DUX4 inh 13.5, DUX4 inh difference 4.0 and DUX4 inh control 9.5.
For Cc1noc(C)c1NC(=O)N(C)C[C@@H]1Oc2ccc(NC(=O)CCCN(C)C)cc2C(=O)N([C@@H](C)CO)C[C@H]1C the results were DUX4 inh -1.0, DUX4 inh difference -2.0 and DUX4 inh control 1.0.

2 successive records from above, quoted:
C/C=C/c1cccc(-c2nc(C(=O)N(C)C)cc3c2[C@@H](CCO)N([S@](=O)C(C)(C)C)C3)c1 was read as DUX4 inh 0.1, DUX4 inh difference -0.8 and DUX4 inh control 1.0.
CNC(=O)C[C@@H]1CC[C@@H]2[C@H](COC[C@@H](O)CN2Cc2ccncc2)O1 was read as DUX4 inh 5.7, DUX4 inh difference 0.6 and DUX4 inh control 5.1.

These rows are one share of the data; count on the stated rates, not on these rows.
